# RVFV N-RNA FP: inhibitors of RVFV nucleoprotein–RNA binding, primary screen, biochemical, fluorescence polarization | P21700 | RVFV N-RNA binding; stronger effect = lower value | % bound, % (concentration not given with the values) | 0.1% of 20,000 active;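 active = between 0 and 58% in either replicate with normal brightness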;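 note: 100 nL library stock added to about 12 µL; 100% = protein and probe without compound and 0% = probe alone; numbers are from one replicate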
# Target sequence (P21700 whole entry, looked up): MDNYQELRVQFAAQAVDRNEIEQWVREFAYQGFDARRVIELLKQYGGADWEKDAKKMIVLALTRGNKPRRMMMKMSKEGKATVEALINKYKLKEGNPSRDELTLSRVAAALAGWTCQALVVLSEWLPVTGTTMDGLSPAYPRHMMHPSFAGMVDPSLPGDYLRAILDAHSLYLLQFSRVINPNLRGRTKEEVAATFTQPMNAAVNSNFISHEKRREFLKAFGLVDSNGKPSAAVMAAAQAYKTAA
# * hit, by the source's call; & = joins results of further samples.
SMILES,RVFV N-RNA FP
NC(=O)CSc1nc2ccc(Cl)cc2[nH]1,100
COC(=O)c1ccccc1SNc1ccccc1C,96
Cc1cc(C)c(NC(=S)NCCO)c(C)c1,93
NC(N)=N/N=C/c1ccc(O)c(Cl)c1,95
Cc1ccc(Nc2ccc(N3CCN(C(=O)CCc4ccccc4)CC3)nn2)cc1,108
CC1=CC(=O)CC(C)(C)C1(O)/C=C/C(C)=C/C(=O)O (stereo not drawn),88
O=C1N=C(O)CN1N=Cc1ccc(-c2ccc([N+](=O)[O-])cc2)o1,93
S=c1[nH]nc(COc2ccccc2)n1/N=C/c1cccnc1,81
c1ccc2c(c1)CC(N1CCN(c3cccc4c3OCCO4)CC1)C2,93
COc1ccc(C2NC(=O)N(C)C(C)=C2C(=O)Nc2ccccc2)cc1 (stereo not drawn),94
C=CCOc1cccc(C(=O)N2CCN(C)CC2)c1,101
CCN(CC)S(=O)(=O)c1ccc(C)c(C(=O)Nc2cc(C)on2)c1,101
CC1=CC(=C2C(=O)NC(=S)NC2=O)C=C(C)N1CCc1ccccc1,94
CC(C)c1nc(N2CCN(C(=O)c3ccccc3)CC2)c(C#N)c2c1COC(C)(C)C2,107
CC1CC(=O)c2ccc(O)cc21 (stereo not drawn),89
Cc1ccsc1/C=N/NC(=O)C1C2CCCCC21 (stereo not drawn),85
Cc1nn(-c2ccccc2)c(C)c1-c1nc(-c2ccc(C(C)(C)C)cc2)no1,96
CC(=O)NC(c1ccco1)c1c(O)ccc2ccccc12 (stereo not drawn),100
O=C(Nc1nnc(-c2ccco2)o1)C1=COCCO1,96
CCN(C(=O)C1CCCO1)C1CCCCC1 (stereo not drawn),88

# Next part; the last 10 above are carried over.
SMILES,RVFV N-RNA FP
C=CCOc1cccc(C(=O)N2CCN(C)CC2)c1,101
CCN(CC)S(=O)(=O)c1ccc(C)c(C(=O)Nc2cc(C)on2)c1,101
CC1=CC(=C2C(=O)NC(=S)NC2=O)C=C(C)N1CCc1ccccc1,94
CC(C)c1nc(N2CCN(C(=O)c3ccccc3)CC2)c(C#N)c2c1COC(C)(C)C2,107
CC1CC(=O)c2ccc(O)cc21 (stereo not drawn),89
Cc1ccsc1/C=N/NC(=O)C1C2CCCCC21 (stereo not drawn),85
Cc1nn(-c2ccccc2)c(C)c1-c1nc(-c2ccc(C(C)(C)C)cc2)no1,96
CC(=O)NC(c1ccco1)c1c(O)ccc2ccccc12 (stereo not drawn),100
O=C(Nc1nnc(-c2ccco2)o1)C1=COCCO1,96
CCN(C(=O)C1CCCO1)C1CCCCC1 (stereo not drawn),88
C/C(=C\C(=O)c1ccccc1)NCc1ccccc1,97
COc1cc(CN2CCSCC2)ccc1O,98
COc1ccc(C(O)C(F)(F)F)cc1 (stereo not drawn),88
COC(=O)c1c(C)oc2ccc(OC)cc12,100
Cc1ccc(NC(=O)NC2CC(=O)N(c3ccc4c(c3)OCCO4)C2)cc1C (stereo not drawn),101
COc1ccc(C(=O)NCCSc2ccccc2C)cc1,99
S=C1N[C@H]2CCCC[C@@H]2N1,94
CC(C)=CC(=O)Nc1nc(C)c(C)s1,98
CN(CCCc1ccccc1)CCc1ccccn1,96
NC(N)=NOCCC(N)C(=O)O (stereo not drawn),97
C=CCNC(=O)CC1Nc2ccccc2NC1=O (stereo not drawn),99
COc1cc(C(=O)NCc2nnc(SCC(=O)Nc3cc(C)on3)o2)cc(OC)c1OC,100
O=S(=O)(c1cccs1)N1CN(Cc2ccccc2)c2nc3ccccc3nc21,100
CCOc1nc2cccc(C(=O)O)c2n1Cc1ccc(-c2ccccc2-c2nn[nH]n2)cc1,100
CCC(C)N=Cc1c(O)[nH]c(=S)[nH]c1=O (stereo not drawn),87
CCOCCC(=O)N1CCN(c2ccccc2)CC1,98
O=C(Cn1ccccc1=S)c1ccccc1,96
c1ccc(-c2nn3c(CN4CCCC4)nnc3c3ccccc23)cc1,99
CCOC(=O)c1ccc(CC2S/C(=N/N=C/c3ccc(O)cc3)NC2=O)cc1 (stereo not drawn),95
Cc1cc(Cl)ccc1OCCCC(=O)NO,95
Nc1cc(=O)[nH]c(SCCOc2ccccc2)n1,94
CN(C)/C=C/C(=O)c1cc(F)cc(F)c1O,98
CC(C)(C)NC(=O)CCCN1C(=O)/C(=C\c2ccco2)SC1=S,93
COC(=O)c1ccc(Oc2ccc(Cl)cc2)nc1,91
FC(F)(F)c1cccc(-c2nnc(-c3ccc(Cl)cc3)o2)c1,93
Cc1ccc(/C(O)=C2\C(=O)C(=O)N3c4ccccc4OC(=O)C23O)cc1 (stereo not drawn),93
CC1=NN(c2ccccc2)C(=O)C1=C1SCCS1,98
C=CCN(c1ccc(C(=O)N2CCCC2)cc1)S(C)(=O)=O,102
Cc1cn([C@H]2C=C[C@@H](CO)O2)c(=O)[nH]c1=O,100&101&98
O=C1Nc2ccccc2Oc2ccc(S(=O)(=O)N3CCOCC3)cc21,101
O=C(O)CC1(CC(=O)Nc2ccc(-c3cn4c(n3)SCC4)cc2)CCCCC1,99
CP(=O)(O)C1=CCNCC1,97
COc1ccc(-c2nn(CCC#N)cc2C(=O)O)cc1OC,98
COc1ccc(CCN2CCCn3c2nc2c3c(=O)n(CC(N)=O)c(=O)n2C)cc1OC,79
CCCC(=O)Nc1cc(=O)n(C)c(=O)n1C,97
NC(N)=NC(=O)c1nc(Cl)c(N2CCCCCC2)nc1N,96
CCOC(=O)c1c(C)nn(-c2ncccc2NC(=S)NCc2ccco2)c1C,92
CC1(C)Cc2ccccc2C(C)(C(=O)NN)N1 (stereo not drawn),92
CC(C)CC(=O)NC(=S)Nc1ccc2oc(-c3ccccc3)nc2c1,101
CC1(C)O[C@H]2O[C@H](C(O)COC(=O)c3ccccc3)[C@H](OC(=O)c3ccccc3)[C@H]2O1 (stereo partly drawn),93
CC1=NN(C(C)(C)C#N)C(c2ccccc2)C1 (stereo not drawn),96
COc1cc(NS(=O)(=O)c2ccc(N)cc2)nc(OC)n1,98
CCOC(=O)c1nc(N)nc(Nc2ccccc2)n1,97
O[C@@H]1CC2C3C[C@H](O)C4C3CC2C41 (stereo partly drawn),95
COc1ccccc1C(=O)NC1CCN(C)CC1,95
COC(=O)NCC(c1cccnc1)N1CCN(c2ccccc2)CC1 (stereo not drawn),93
Cc1ccc(C(=O)C(NC(=O)c2ccco2)Nc2ccc(C)c(Cl)c2)cc1 (stereo not drawn),101
CCOC=Nc1c(C(=O)OCC)sc2nc(SC)ncc12,100
S=C(NC1CC1)N1CCN(c2ccc(Cl)cc2)CC1,93
CCOC(=O)C1=C(C)NC(=S)NC1c1c(F)cccc1Cl (stereo not drawn),99
O=C(CSc1nc(-c2ccccc2)cs1)N1CCOCC1,104
CSc1nc(C)nc(Nc2ccc(Cl)cc2Cl)c1C#N,90
CCOc1ccc(N2C(=O)CC(NC3CCN(c4ncccn4)CC3)C2=O)cc1 (stereo not drawn),93
O=C(NC(=O)c1c(F)cccc1F)Nc1cc(Cl)c(OC(F)(F)C(F)C(F)(F)F)cc1Cl (stereo not drawn),99
O=C(NCc1ccccc1)NC(=O)c1ccccc1I,91
Cn1c(=O)c(C(=O)NCCc2ccccc2)cc2cccnc21,102
CC(C)NS(=O)(=O)c1ccc(OCC(N)=O)cc1,99
O=C(Nc1ccn([C@H]2CC[C@@H](CO)O2)c(=O)n1)c1ccccc1,93
CCCCS(=O)(=O)Nc1ccc2c(c1)ncn2C1CCCCC1,105
Cn1cnc(S(=O)(=O)NCc2ccc3c(c2)OCO3)c1,93

# (list continues)
SMILES,RVFV N-RNA FP
CS(=O)(=O)c1cccc(C(=O)Nc2nccs2)c1,97
CC(C)N=C(NC#N)NC(C)C,107
CC1(C)S[C@@H]2[C@H](N=CN3CCCCCC3)C(=O)N2[C@H]1C(=O)O,99
CN1CCN(NC(=O)COc2ccc(Br)cc2Cl)CC1,98
COC(=O)c1ccccc1NC(=O)C1CCCC1,93
O=c1c[n+]([O-])c2ccccc2n1OCc1ccccn1,97
COc1ccc(NC(=O)c2ccc3c(c2)C(=O)N(Cc2cccnc2)C3=O)cc1,91
O=C(NCCCN1CCCC1=O)c1cccs1,95
N#CC(C#N)=CNCCN1CCN(C=C(C#N)C#N)CC1,93
CC1Cc2ccccc2N1C(=O)c1ccc(Cl)cc1 (stereo not drawn),93
CCOc1ccc(C(=O)NN2CCN(C)CC2)cc1,95
C#CC1(NC(=O)NC(=O)c2ccccc2Cl)CCCCC1,88
NC(CCc1nc2ccccc2[nH]1)c1nc2ccccc2[nH]1 (stereo not drawn),97
CC(=O)NS(=O)(=O)c1ccc(N)cc1,96
O=C(CSCc1ccc(Br)cc1)N1CCCC1,94
Nc1nc2c(ncn2COC(CO)CO)c(=O)[nH]1,99&98&98
CSc1nnc2ccc(-c3cccnc3)nn12,108
O=C(O)Cc1c2ccccc2n2c1[nH]c(=O)c1ccccc12,106
CNC(=S)N1CCN(C(c2ccccc2)c2ccccc2)CC1,95
O=C1CCCN1c1ccc(S(=O)O)cc1,86

# More records
Compound | RVFV N-RNA FP
COc1ccc(Cl)cc1N1C(=O)CC(NC(C)(C)C)C1=O (stereo not drawn) | 97
CCc1nnc(NC(=O)C2CCCCC2)s1 | 97
CC(C)(C)NC(=O)CCN1C(=O)c2ccccc2S1(=O)=O | 87
Cc1nn(C)c2[nH]c3c(c(=O)c12)CSC3 | 90
Cc1ccccc1C(=O)NCc1ccc2c(c1)CCO2 | 96
CN(C)C(=O)CSc1nnc(Nc2ccccc2)n1-c1ccccc1 | 93
COc1ccccc1CCN=C(N)NS(C)(=O)=O | 96
CCC(C)NC(=O)C1CC1c1ccccc1 (stereo not drawn) | 83
COc1ccc(OCCSc2ncccn2)cc1 | 87
Cc1cc(NS(=O)(=O)c2ccc(N3C(=O)C4C5C=CC(C5)C4C3=O)cc2)nc(C)n1 (stereo not drawn) | 95
Nc1nccc(-c2ccc(NC(=O)Nc3cccc(Cl)c3)cc2)n1 | 92
CS(=O)(=O)Nc1ccc(C(=O)NC23CC4CC(CC(C4)C2)C3)cc1 | 87
CCC(=O)N1CCN(C(=O)c2ccccc2)CC1 | 103
COC(=O)c1c(C)nc(C)c(C(=O)OC)c1-c1csc(S(=O)(=O)N2CCOCC2)c1 | 97
CCCN1CCC(NCCc2ccccc2OC)CC1 | 101
CC(=O)Nc1ccc(CN2CCCCC2)cc1 | 96
CCn1c(N)c(C(=O)NCC2CCCO2)sc1=S (stereo not drawn) | 98
CCc1cc(C(=O)c2ccc(OC)cc2)c(NC(=O)CN2CCN(C)CC2)s1 | 92
N/C(=N\OCC(=O)N1CCOCC1)c1nonc1N | 92
N/C(Cc1cccc2ccccc12)=N\OC(=O)c1ccc(Br)o1 | 85
CC(C)(C)c1ccc(OCCCSC#N)cc1 | 101
CC(C)(C)NC(=O)N1CCn2cccc2C1c1cccnc1 (stereo not drawn) | 94
NC(=S)Cc1ccc(-c2csnn2)cc1 | 101
CCCCN1C(=O)S/C(=C/c2ccc(OC)cc2)C1=O | 99
CC(=O)Nc1cccc(N2C(=O)CCC2=O)c1 | 95
COC(=O)c1cc(C(=O)OC)c2ccccc2n1 | 98
Cc1ccc(OCc2nc(C#N)c(NCCCN3CCOCC3)o2)cc1 | 90
CNCCC(Oc1ccc(C(F)(F)F)cc1)c1ccccc1 (stereo not drawn) | 95&94&98
Cc1nnc(SCC(=O)c2ccc(F)cc2)o1 | 92
Cc1csc(Nc2ccc(Cl)cc2)n1 | 94
CC1=C(O)C(=O)C(/C=N/NC(N)=O)C1 (stereo not drawn) | 94
N#CC1=C(c2ccccc2)C(c2ccccc2)OC1=O (stereo not drawn) | 90
O=C(O)C1CCNCC1 | 99
O=C(Nc1ccccc1)N1CCCN(c2nccc(C(F)(F)F)n2)CC1 | 98
Cc1[nH]c2ccccc2c1/C=N/NC(=O)CN1CCSCC1 | 93
CCCN(CCC)c1ccc(/C=N/NC(=O)OCC)cc1 | 88
Cc1cnn(C(=O)c2ccc(Br)o2)c1 | 94
O=C(NCc1ccco1)NC(=O)c1ccccc1 | 89
CC1CN(c2nn3c(=O)c4ccccc4nc3c3ccccc23)CC(C)O1 (stereo not drawn) | 97
N#Cc1c2n(cnc1=O)CCCCC2 | 91
CC(=O)CC(c1ccccc1)c1c(O)c2ccccc2oc1=O (stereo not drawn) | 96
COc1ccc(C(CC#N)C(C)C)cc1 (stereo not drawn) | 89
CCOc1ccccc1NC(=O)c1cc(=O)[nH]c2ccccc12 | 104
COc1ccc(N(C(C)=O)S(=O)(=O)c2ccc(F)cc2)cc1 | 102
CC1(C)CC(=O)C2=C(C1)NC(=O)CC2c1ccccc1 (stereo not drawn) | 90

# Given with each value named: part of the list above.
COc1ccc(N(C(C)=O)S(=O)(=O)c2ccc(F)cc2)cc1
  RVFV N-RNA FP: 102
CCOc1ccccc1NC(=O)c1cc(=O)[nH]c2ccccc12
  RVFV N-RNA FP: 104
COc1ccc(C(CC#N)C(C)C)cc1 (stereo not drawn)
  RVFV N-RNA FP: 89
CC(=O)CC(c1ccccc1)c1c(O)c2ccccc2oc1=O (stereo not drawn)
  RVFV N-RNA FP: 96

# Further structures:
Compound | RVFV N-RNA FP
CCC(=O)Nc1cc2c3c(c1)CCN3C(=O)CC2 | 95
COc1cc(/C=C/c2ccc(O)cc2)cc(OC)c1 | 98
OC(CCN1CCCCC1)(c1ccccc1)C1CCCCC1 (stereo not drawn) | 97&102
CN(c1ccccc1)S(=O)(=O)c1cc2c3c(c1)CCC(=O)N3CCC2 | 99
COc1ccc(-c2c(C)c3ccc(OC(=O)N4CCOCC4)cc3oc2=O)cc1 | 92
COc1ccc(C(=O)N(CC#N)CC#N)cc1OC | 96
CC(=C1C(=O)c2ccccc2C1=O)N1CCN(Cc2ccccc2)CC1 | 92
CC(=O)c1ccc2c(c1)Sc1ccccc1N2CCCN1CCN(CCO)CC1 | 96
CCOCCC(=O)Nc1ccccc1C(F)(F)F | 108
C=CCOc1c(-c2ccco2)oc2ccccc2c1=O | 101
CCCCOc1ccc(C(=O)Nc2cccc(NC(=O)c3ccco3)c2)cc1 | 92

# Assay outcomes (PubChem)

# Not all compounds are listed; rates above refer to the full screens.
